High-throughput results deposited in PubChem by Broad Institute.
AF4-AF9 inh = blocks AF4 peptide binding to human AF9 | actives 0.47% (n = 350,000) | P42568 | inhibition, % at 10 µM | AlphaScreen, biotin-AF4 peptide binding to FLAG-AF9;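 active = every replicate reaching a set inhibition limit, whatever the replicate mean, cut at about 25% in these data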;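 note: 0% = plate neutral control median and 100% = total signal loss; the record names both 10 and 1 µM as test concentration; the first replicate is given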
Target sequence (P42568 whole entry, looked up): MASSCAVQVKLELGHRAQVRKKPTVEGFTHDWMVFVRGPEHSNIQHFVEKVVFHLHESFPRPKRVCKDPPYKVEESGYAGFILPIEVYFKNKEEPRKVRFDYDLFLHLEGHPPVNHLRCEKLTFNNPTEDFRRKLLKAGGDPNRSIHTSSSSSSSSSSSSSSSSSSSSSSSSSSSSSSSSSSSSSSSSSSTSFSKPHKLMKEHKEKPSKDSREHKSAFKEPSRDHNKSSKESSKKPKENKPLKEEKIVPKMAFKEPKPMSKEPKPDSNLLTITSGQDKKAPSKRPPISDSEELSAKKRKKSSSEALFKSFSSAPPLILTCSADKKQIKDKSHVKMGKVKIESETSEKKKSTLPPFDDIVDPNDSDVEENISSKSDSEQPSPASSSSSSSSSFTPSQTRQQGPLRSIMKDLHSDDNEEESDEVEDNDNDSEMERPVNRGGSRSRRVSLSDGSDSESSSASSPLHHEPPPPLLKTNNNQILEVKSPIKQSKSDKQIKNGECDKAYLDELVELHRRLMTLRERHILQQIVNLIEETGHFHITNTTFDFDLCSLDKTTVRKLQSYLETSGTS
* marks the source's active call; other numbers are inactive results; & = joins results of further samples. Not all compounds are listed. The share of hits here may be higher or lower than overall.

AF4-AF9 inh	compound
0.9	Cn1c(=O)c2cc(NC(=S)NCc3ccccc3F)ccc2n1Cc1ccc(F)cc1
-0.6&0.6	COc1ccc(CN(C)C[C@H]2OCc3cnnn3CCCC(=O)N([C@H](C)CO)C[C@@H]2C)cc1
2.5	O=C(N[C@@H]1CC[C@H](CCn2cc(C3CCCCC3)nn2)O[C@@H]1CO)c1cccnc1
1.6	C[C@H](CO)N1C[C@H](C)[C@@H](CN(C)Cc2ccc(C(=O)O)cc2)Oc2c(NC(=O)c3ccc(-c4nccs4)cc3)cccc2C1=O
2.0	O=C(C[C@@H]1C=C[C@H](NC(=O)Nc2cccc(F)c2)[C@H](CO)O1)NCC1CCCCC1
-11	CCCNC(=O)N1[C@H](CO)[C@@H](c2ccccc2)C12CN(C(=O)c1cccnc1)C2
0.0	CO[C@@H]1CN(C)C(=O)c2ccc(NS(=O)(=O)c3ccc(C)cc3)cc2OC[C@@H](C)N(C)C[C@H]1C
0.1	CCCCc1c(-c2ccccc2OC)ncn1Cc1cccc(C)c1
-4.6	Cc1cccc(S(=O)(=O)N2CC[C@@H]3[C@H](CO)N(C)c4ccc(-c5ccc(C#N)cc5)cc4[C@@H]32)c1
1.2	Cc1ccc(S(=O)(=O)N(C)C[C@H]2Oc3ccc(NC(=O)Nc4cccc5ccccc45)cc3CC(=O)N([C@H](C)CO)C[C@@H]2C)cc1
1.7	CCCNC(=O)[C@@H]1[C@@H](CO)[C@@H]2Cn3c(ccc(C4=CCCC4)c3=O)[C@H]1N2Cc1ccncc1
0.6	C[C@H]1CN([C@@H](C)CO)C(=O)CCCn2nncc2CO[C@@H]1CN(C)C(=O)Nc1ccc2c(c1)OCCO2
-3.6	CN(C)C(=O)c1cccc(-c2ccc3c(c2)[C@H]2[C@H](CCN2S(=O)(=O)c2cn(C)cn2)[C@@H](CO)N3)c1
-3.9	COCc1cccc(-c2csc(C(NC(C)=O)c3ccccc3)n2)c1 (stereo not given)
0.3	CN(C)CC(=O)N[C@H]1CC[C@@H](CCNC(=O)C2CCC2)O[C@H]1CO
-0.9	O=[N+]([O-])c1ccc2cn(C3OC(CO)C(O)C3O)nc2c1 (stereo not given)
-1.5	O=C(Nc1ccc(Cl)cc1)N[C@@H]1CC[C@H](CCNS(=O)(=O)c2ccccc2F)O[C@H]1CO
-3.2	C[C@H]1CN([C@@H](C)CO)C(=O)c2cc(-c3ccc(F)cc3)cnc2O[C@H]1CN(C)C(=O)c1cccnc1
2.6	O=C(NC(c1ccc(Cl)cc1)c1ccsc1)C1CCN(Cc2cccc(Cl)c2)CC1 (stereo not given)
-0.4	COc1ccc(CN(C)C[C@H]2Oc3ccc(NC(=O)CCN4CCOCC4)cc3C(=O)N([C@H](C)CO)C[C@@H]2C)cc1
-1.2	O=C(C[C@@H]1C[C@H]2c3cc(NC(=O)c4ccc5c(c4)OCO5)ccc3O[C@H]2[C@@H](CO)O1)NC1CCCC1
4.1	CCCC#Cc1ccc2c(c1)O[C@H](CN(C)C(=O)C1CCC1)[C@H](C)CN([C@H](C)CO)S2(=O)=O
-0.6	COc1cccc(NC(=O)N[C@@H]2CC[C@@H](CC(=O)NCc3ccncn3)O[C@H]2CO)c1
-15	Fc1cc(Cl)ccc1Nc1nc(NCc2ccccc2)nc2ccsc12
1.0	COC(=O)C[C@@H]1C[C@H]2c3cc(NC(=O)C4CCOCC4)ccc3O[C@H]2[C@@H](CO)O1
-1.7	CN(C)C(=O)C[C@@H]1C=C[C@@H](NC(=O)Nc2cccc(F)c2)[C@@H](CO)O1
-1.6	COc1ccc(C(=O)Nc2ccc3c(c2)C(=O)N(C)C[C@H](OC)[C@H](C)CN[C@@H](C)CO3)cc1
-5.2	CC(C)CC#Cc1cnc2c(c1)C(=O)N([C@@H](C)CO)C[C@@H](C)[C@@H](CN(C)Cc1ccccn1)O2
18	CCCC#Cc1ccc2c(c1)[C@H]1[C@H](CCN1Cc1ccccc1F)[C@@H](CO)N2
0.0	CO[C@@H]1CN(C)C(=O)c2cc(NC(=O)Nc3ccccc3F)ccc2OC[C@@H](C)N(C(C)=O)C[C@H]1C

An excerpt from above in order of the AF4-AF9 inh value, low to high.
AF4-AF9 inh	compound
-5.2	CC(C)CC#Cc1cnc2c(c1)C(=O)N([C@@H](C)CO)C[C@@H](C)[C@@H](CN(C)Cc1ccccn1)O2
-1.7	CN(C)C(=O)C[C@@H]1C=C[C@@H](NC(=O)Nc2cccc(F)c2)[C@@H](CO)O1
-1.2	O=C(C[C@@H]1C[C@H]2c3cc(NC(=O)c4ccc5c(c4)OCO5)ccc3O[C@H]2[C@@H](CO)O1)NC1CCCC1
-0.6	COc1cccc(NC(=O)N[C@@H]2CC[C@@H](CC(=O)NCc3ccncn3)O[C@H]2CO)c1
2.6	O=C(NC(c1ccc(Cl)cc1)c1ccsc1)C1CCN(Cc2cccc(Cl)c2)CC1 (stereo not given)

6 compounds from above, sorted by SMILES length, highest first:
AF4-AF9 inh	compound
1.2	Cc1ccc(S(=O)(=O)N(C)C[C@H]2Oc3ccc(NC(=O)Nc4cccc5ccccc45)cc3CC(=O)N([C@H](C)CO)C[C@@H]2C)cc1
1.6	C[C@H](CO)N1C[C@H](C)[C@@H](CN(C)Cc2ccc(C(=O)O)cc2)Oc2c(NC(=O)c3ccc(-c4nccs4)cc3)cccc2C1=O
-4.6	Cc1cccc(S(=O)(=O)N2CC[C@@H]3[C@H](CO)N(C)c4ccc(-c5ccc(C#N)cc5)cc4[C@@H]32)c1
0.3	CN(C)CC(=O)N[C@H]1CC[C@@H](CCNC(=O)C2CCC2)O[C@H]1CO
-0.9	O=[N+]([O-])c1ccc2cn(C3OC(CO)C(O)C3O)nc2c1 (stereo not given)
-3.9	COCc1cccc(-c2csc(C(NC(C)=O)c3ccccc3)n2)c1 (stereo not given)

Other entries
AF4-AF9 inh	compound
1.7	C[C@@H]1CN([C@H](C)CO)C(=O)c2cc(-c3cccc(C#N)c3)cnc2O[C@H]1CN(C)Cc1ccc(F)cc1
-1.2	CC(C)NC(=O)Nc1cccc2c1O[C@@H](CN(C)C(=O)Nc1ccccc1)[C@@H](C)CN([C@@H](C)CO)C2=O
0.0	CCCNC(=O)N1CC2(CCN(C(=O)Cc3cccnc3)CC2)c2c([nH]c3cc(OC)ccc23)[C@H]1CO
5.0	C[C@@H]1CN([C@H](C)CO)C(=O)c2cc(NC(=O)Cc3ccccc3)ccc2O[C@@H](C)CCCCO[C@@H]1CN(C)Cc1ccccc1
0.8	O=C([C@@H]1[C@@H](CO)[C@@H]2Cn3c(ccc(-c4cccnc4)c3=O)[C@H]1N2CC1CC1)N1CCCCC1
-1.1	CCc1nc2ccc(C(=O)N(C)CCN(C)C)cn2c1N(CC)C(=O)NCCc1ccccc1
2.3	COc1ccc(-c2cn(CC[C@H]3CC[C@@H](NC(=O)CCN4CCCCC4)[C@@H](CO)O3)nn2)cc1
0.6	CC(C)NC(=O)Nc1ccc2c(c1)C(=O)N([C@@H](C)CO)C[C@@H](C)[C@@H](CN(C)Cc1ccncc1)OCCCC[C@@H](C)O2
-1.7	CC(=O)OC[C@@H]1CN(Cc2ccccc2)C[C@H](n2cnc3c(N4CCOCC4)ncnc32)O1
0.3	C[C@@H]1CN([C@H](C)CO)C(=O)c2cc(-c3cccnc3)cnc2O[C@H]1CN(C)C(=O)C1CCOCC1
2.1	C/C=C/c1ccc([C@H]2[C@@H](C#N)N(C(=O)CN3CCOCC3)[C@H]2CO)cc1
-2.4	CCC(=O)N1CCC2(CC1)CN(S(=O)(=O)c1ccccc1)[C@H](CO)c1[nH]c3cc(OC)ccc3c12
-1.2	CO[C@H]1CN(C)C(=O)c2ccc(NC(=O)C3CCC3)cc2OC[C@H](C)N(C(=O)NC(C)C)C[C@H]1C
0.8	COc1ccc(NC(=O)N(C)C[C@@H]2Oc3c(NS(=O)(=O)c4cccs4)cccc3C(=O)N([C@H](C)CO)C[C@H]2C)cc1
0.5	O=C1O[C@@H](c2ccccc2)[C@@H](c2ccccc2)N2[C@@H](c3ccc(O)cc3)[C@]3(C(=O)Nc4ccc(C#CC5(O)CCCCCC5)cc43)[C@@H](C(=O)N3CCCCCCC3)[C@H]12
-9.5	C[C@@H]1CCCCO[C@H](CN(C)S(=O)(=O)c2cn(C)cn2)[C@@H](C)CN([C@@H](C)CO)C(=O)c2cc(NS(=O)(=O)c3cn(C)cn3)ccc2O1
4.7	CC(C)NC(=O)Nc1ccc2c(c1)C(=O)N([C@H](C)CO)C[C@H](C)[C@H](CN(C)Cc1ccncc1)OCCCC[C@H](C)O2
-14	CO[C@H]1CC[C@@H]2CCOc3c(C#N)cccc3C(=O)N(C)[C@H](C)C(=O)N(C)C[C@H]1O2
0.9	CCCCCCCCN1C(=O)[C@H](CC(=O)N2CCN(C(=O)c3ccco3)CC2)C[C@@]2(C(=O)OC)CCCCC=C12
-2.9	CCCN(C[C@H]1[C@@H](c2ccccc2)[C@H](CO)N1C(C)=O)C(=O)NC(C)C
-2.1	O=C(C1CCCCC1)N1CC(=O)N2[C@H](CO)[C@@H](c3ccc(Br)cc3)[C@@H]2C1
-6.2	O=C(Nc1ccc(Cl)c(Cl)c1)N[C@H]1CC[C@@H](CCn2cc(C3CCCC3)nn2)O[C@H]1CO
-0.8	CNC[C@H]1Oc2ccc(NS(=O)(=O)c3c(C)noc3C)cc2CC(=O)N([C@@H](C)CO)C[C@H]1C
0.3	CN1C(=O)c2cc(NC(=O)c3cc(F)cc(F)c3)ccc2OC[C@@H]2O[C@@H](CC(=O)O)CC[C@@H]21
-1.2	CC=Cc1ccc2n(c1=O)C[C@@H]1[C@@H](CO)[C@H](C(=O)NCc3ccc(F)cc3)N(C)[C@H]21 (mixture of isomers)
-32	O=C([C@@H]1[C@@H](CO)[C@@H]2Cn3c(ccc(-c4cccnc4)c3=O)[C@@H]2N1CC1CC1)N1CCCCC1
1.1	O=C(C[C@H]1CC[C@H]2[C@@H](COC[C@@H](O)CN2C(=O)Nc2ccc(Cl)cc2)O1)NCc1ccncn1
0.7	C[C@@H](NC(=O)C[C@@H]1C[C@H]2c3cc(NC(=O)CC4CC4)ccc3O[C@H]2[C@@H](CO)O1)c1ccccc1
2.1	COc1ccc2c3c([nH]c2c1)[C@@H](CO)N(C)CC31CCN(C(=O)C2CC2)CC1
-1.1	CC(=O)N(C)C[C@@H]1Oc2cc(C#Cc3ccccn3)ccc2S(=O)(=O)N([C@H](C)CO)C[C@@H]1C
-1.6	Cn1cnc(S(=O)(=O)N[C@H]2CC[C@@H](CC(=O)Nc3ccc(-c4ccccc4)cc3)O[C@@H]2CO)c1
-6.4	CCC(=O)N1CCCCN2[C@H](CO)[C@@H](c3ccc(C#Cc4ccccc4)cc3)[C@@H]2C1
-7.7	CCCNC(=O)N1C[C@@H](O)COC[C@@H]2O[C@H](CC(=O)N[C@H]3CCN(Cc4ccccc4)C3)CC[C@H]21
-6.5	COc1ccc2c3c([nH]c2c1)[C@H](CO)N(C(=O)c1ccncc1)CC31CN(C(=O)CC2CC2)C1
-1.8	CCNC(=O)C[C@H]1CC[C@@H]2[C@H](COc3ccc(NC(=O)c4ccc(F)cc4)cc3C(=O)N2C)O1
-1.6	C[C@@H]1CN([C@@H](C)CO)C(=O)c2cccc(NC(=O)C3CCOCC3)c2O[C@@H]1CN(C)C(=O)Nc1ccc(C(F)(F)F)cc1
-1.1	CCCC(=O)Nc1ccc2c(c1)C(=O)N(C)C[C@@H](OC)[C@@H](C)CN[C@@H](C)CO2
-0.9	COCC(=O)N1C[C@H](C)[C@H](OC)CN(C)C(=O)c2cc(NC(=O)Nc3cccc(F)c3)ccc2OC[C@H]1C
-1.5	CCNC(=O)C[C@@H]1CC[C@H]2[C@@H](COC[C@@H](O)CN2Cc2ccc(Cl)c(Cl)c2)O1
-0.7	N#C[C@@H]1[C@@H](c2ccccc2-c2ccccc2F)[C@@H](CO)N1C(=O)C1CCC1
-2.1	C[C@@H]1CN([C@@H](C)CO)C(=O)c2cc(NC(=O)C3CCCCC3)ccc2O[C@@H](C)CCCCO[C@@H]1CN(C)C(=O)C1CCCCC1
-1.5	C[C@@H]1CN([C@H](C)CO)S(=O)(=O)c2ccc(C#Cc3cccnc3)cc2O[C@@H]1CN(C)C
-21	Cc1noc(C)c1NC(=O)N(C)C[C@@H]1Oc2ccc(NC(=O)CCC(F)(F)F)cc2CC(=O)N([C@H](C)CO)C[C@@H]1C
-10	C[C@H]1CN([C@@H](C)CO)C(=O)c2cc(-c3ccc(C(=O)N(C)C)cc3)cnc2O[C@H]1CN(C)C(=O)c1ccncc1
15	COc1ccccc1CCn1cnc(Cc2ccccc2)c1C(C)C
0.8	C[C@H]1CN([C@@H](C)CO)C(=O)c2cccc(NC(=O)Nc3ccccc3)c2O[C@H]1CN(C)C(=O)Nc1ccc2c(c1)OCO2
-0.6	CN(C)C(=O)C[C@H]1C[C@@H]2c3cc(NC(=O)NC4CCCCC4)ccc3O[C@@H]2[C@H](CO)O1
-0.8	O=C(/C=C/[C@H]1O[C@@H](n2ccc(=O)[nH]c2=O)[C@H](O)[C@@H]1O)NCCN1CCCCC1
-10	Cc1ccc(S(=O)(=O)N(C)C[C@@H]2Oc3ccc(NS(C)(=O)=O)cc3CC(=O)N([C@H](C)CO)C[C@H]2C)cc1
1.3	CC(C)NC(=O)Nc1cccc2c1O[C@@H](CN(C)C(=O)Nc1ccc(C(F)(F)F)cc1)[C@@H](C)CN([C@H](C)CO)C2=O
16	CN1C(=O)c2cc(NC(=O)c3ccc(F)c(F)c3)ccc2OC[C@H]2O[C@@H](CC(=O)N[C@@H]3CCN(Cc4ccccc4)C3)CC[C@@H]21
2.5	N#Cc1ccc(-c2ccc([C@@H]3[C@@H](CO)N4CCCCN(S(=O)(=O)c5ccccc5)C[C@H]34)cc2)cc1
-4.9	CCCCC1Cc2[nH]c(=S)[nH]c(=O)c2C(c2ccc(Cl)cc2)O1 (stereo not given)
-3.2	COC(=O)[C@]12C[C@H](CC(=O)NCCC(C)C)C(=O)N(Cc3ccccc3)C1=C[C@H](C(C)(C)C)O[C@@H]2C
